# gsp antagonist = qHTS for Antagonists of gsp, the Etiologic Mutation Responsible for Fibrous Dysplasia/McCune-Albright Syndrome: qHTS. gsp-mutant cells, cAMP HTRF, 30 min; control for the full effect not named in the record. Potency, µM (doses to about 76.9 µM), for inactives: at the top dose activity change, negative = inhibition, actives largely listed as inhibitors. 340,000 compounds, 0.4% hits; active = falling curve of any shape with a large fitted effect; inconclusive = falling curve, mostly with a smaller effect; inactive = flat or rising curve; cell line not stated here;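 further: intracellular cAMP measured with PDE inhibitor Ro 20-1724 present during compound exposure; potency means the concentration at half of the fitted maximal effect; on the % scale 0 is the no-effect control and ±100 the full control effect; nearly all actives have a fitted effect of over 65% in size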
#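 HTRF cAMP measurement after 30 min RT detection following 30 min, 37C compound treatment alongside […] (added as 300 uM solution) in G418-selected cells seeded at 2000/well and grown 16–24 h.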
# Sfp PPTase inh = qHTS Assay for Inhibitors of Bacillus subtilis Sfp phosphopantetheinyl transferase (PPTase); Biochemical Sfp PPTase activity, qHTS; Potency, µM, for the others: max response, negative = inhibition, hits mostly inhibitors; 310,000 compounds, 3.5% hits; AID 1490, 2009; active means well fitted inhibition curve with a large enough effect; inconclusive means small, poorly fitted or top-dose-only effect, or another doubt; inactive means no such curve, though single readings can be large or run the other way;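 further: the enzyme is Sfp with the accession as filed and its product quenches rhodamine fluorescence; potency means the concentration at half of the fitted maximal effect; 0% = enzyme reaction without inhibitor and -100% = no enzyme wells; top concentration of the series not given in the record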
#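 Fluorescence-quenching assay: 15 nM Sfp-PPTase preincubated 15 min at room temperature with compound, then 5 uM rhodamine-CoA and 12.5 uM BHQ-2-labelled YbbR peptide added. Fluorescence (ex 525/em 598 nm) read at start and after 30 min; difference gives rate.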
# Menin-MLL FL inh = qHTS Assay for Inhibitors Targeting the Menin-MLL Interaction in MLL Related Leukemias: Competition With Fluorescein Labeled MLL-derived Peptide; Fluorescence polarization, fluorescein-MLL peptide displacement from menin; FP activity change, % at 61.4 µM; 290,000 tested, under 10 active; AID 1766, 2009; inconclusive = falling polarisation curve, or a change in total fluorescence; inactive = total fluorescence flat and polarisation flat or rising; no compound was filed as active; the % refers to the polarisation; negative = inhibition;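 further: % of control where 0% means no effect; inhibitors lower the polarisation; unlabelled MLL peptide was the positive control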
# CtBP-E1A blk = qHTS Assay for Inhibitors of the CtBP/E1A Interaction. AID 651724, 2012. AlphaScreen GST-E1A/His-CtBP binding, 1536-well; hits give low values; control for the full effect not named in the record. CtBP / adenovirus E1A interaction (AlphaScreen). 340,000 compounds, 0.49% hits. activity change, % (test concentration not listed); in the data active means activity change below about -65%; inconclusive means about -30% to -65%; inactive means above about -30%; further: on the % scale 0 is the no-effect control and ±100 the full control effect
#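 Protein mix (5X: 125 nM each GST-E1A, His-CtBP) was incubated with pinned compound 2 h at 37 deg C in dark, in 50 mM Tris pH 8.0 buffer with 300 mM NaCl. Glutathione donor and nickel acceptor beads followed; AlphaScreen signal read after 1 h.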
# ClpP mod = qHTS Assay for Activators of ClpP; ATP-dependent Clp protease proteolytic subunit (Bacillus subtilis (strain 168)), P80244; purified B. subtilis ClpP, FRET peptide cleavage, 20 min; Potency, µM (titrated, usually from 57.5 µM), for inactives: at the highest dose activity change, negative = active; 340,000 compounds, 1.9% hits; active = well fitted falling curve with a large enough effect; inconclusive = small, poorly fitted or top-dose-only effect; inactive = no such curve, though single readings can be large or run the other way; further: potency means the concentration at half of the fitted maximal effect; the source files actives as falling curves though it sought activators and does not explain the sign; nearly all actives have a fitted effect of over 65% in size; many hits overshoot -100%
# Target sequence (P80244 whole entry, looked up): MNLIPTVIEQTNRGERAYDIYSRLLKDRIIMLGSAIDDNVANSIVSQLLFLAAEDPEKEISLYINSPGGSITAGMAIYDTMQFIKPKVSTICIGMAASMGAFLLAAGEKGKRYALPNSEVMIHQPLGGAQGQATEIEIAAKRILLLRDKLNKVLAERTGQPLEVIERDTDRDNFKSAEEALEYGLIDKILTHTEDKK
#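 Purified B. subtilis ClpP, 10 microg/mL final in Tris/HCl pH8 with KCl, BSA, glycerol and Tween-20, cleaved an Abz/nitrotyrosine-quenched decapeptide. Fluorescence (ex 320, em 430) was read at 0 and 20 min at room temperature. Delta was normalized to 5.8 microM ADEP and DMSO/no-enzyme controls.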
# TRPV1 PAM = HTS Assay for Compounds that Act as Potentiators of the Vanilloid Receptor 1. Transient receptor potential cation channel subfamily V member 1 (Homo sapiens), Q8NER1. TRPV1-expressing cells, Fluo-8 calcium influx, capsaicin EC20 potentiation; host cell line not named in the record; control for the full effect not named in the record. potentiation, % at 8.33 µM. 320,000 compounds, 0.02% hits. AID 540277, 2011; active means potentiation above 80%; inconclusive means 30% to 80%; inactive means below 30%; further: 0% is about no effect
# Target sequence (Q8NER1 whole entry, looked up): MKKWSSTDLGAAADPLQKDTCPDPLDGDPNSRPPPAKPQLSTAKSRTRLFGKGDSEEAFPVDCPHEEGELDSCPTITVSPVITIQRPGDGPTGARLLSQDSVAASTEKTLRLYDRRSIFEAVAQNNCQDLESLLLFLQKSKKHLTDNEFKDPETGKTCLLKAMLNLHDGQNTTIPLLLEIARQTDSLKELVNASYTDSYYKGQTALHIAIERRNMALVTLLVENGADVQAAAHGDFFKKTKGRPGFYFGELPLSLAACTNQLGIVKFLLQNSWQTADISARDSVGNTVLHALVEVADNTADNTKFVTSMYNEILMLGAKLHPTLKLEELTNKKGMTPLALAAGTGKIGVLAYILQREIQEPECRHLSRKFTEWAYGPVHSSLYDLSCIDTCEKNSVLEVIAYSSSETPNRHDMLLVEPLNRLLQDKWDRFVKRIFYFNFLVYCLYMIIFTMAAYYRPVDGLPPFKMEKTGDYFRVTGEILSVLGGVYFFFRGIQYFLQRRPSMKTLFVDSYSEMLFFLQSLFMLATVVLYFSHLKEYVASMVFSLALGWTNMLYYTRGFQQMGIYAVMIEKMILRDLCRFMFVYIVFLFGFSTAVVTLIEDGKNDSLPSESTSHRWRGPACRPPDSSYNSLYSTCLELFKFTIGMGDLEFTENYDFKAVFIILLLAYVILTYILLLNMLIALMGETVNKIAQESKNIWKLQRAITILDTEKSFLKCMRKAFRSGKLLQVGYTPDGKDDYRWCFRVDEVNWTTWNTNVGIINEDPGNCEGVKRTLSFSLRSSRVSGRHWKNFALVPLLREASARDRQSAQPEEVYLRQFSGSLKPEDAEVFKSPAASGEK
#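 Cells expressing TRPV1 were dye-loaded with Fluo-8 and read kinetically: 10 s baseline, 3 min after compound (agonist portion), then 2 min after EC20 capsaicin (allosteric enhancer portion). Calcium-bound dye fluorescence at 480/520 nm.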
# gsp ag = qHTS for Agonist of gsp, the Etiologic Mutation Responsible for Fibrous Dysplasia/McCune-Albright Syndrome: qHTS; 340,000 compounds, 0.13% hits; Potency, µM (series often up to 76.9 µM), for the others: at the highest dose activation (cAMP increase), hits mostly activators; gsp mutant cells, cAMP HTRF, 30 min; control for the full effect not named in the record; AID 624287, 2012; active = well fitted activation curve with a large enough effect; inconclusive = small, poorly fitted or top-dose-only effect, or another doubt; inactive = no such curve, though single readings can be large or run the other way; cell line not stated here;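 further: phosphodiesterase inhibitor Ro 20-1724 added with compounds to block cAMP breakdown; potency means the concentration at half of the fitted maximal effect; nearly all actives have a fitted effect of over 60% in size; about a fifth of the inactives were tested at one dose only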
#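 Cells in DMEM/10% FBS with G418 were pretreated with compounds in DMSO plus […] (300 uM stock) for 30 min at 37C. cAMP was measured by HTRF (cAMP-d2 plus anti-cAMP antibody-K) after 30 min at room temperature.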
# The depositor's hits bear a star; u = inconclusive; x = not tested or not shown; & = joins results of further samples; [ ] = remark or other dose.
# A first look (6 entries):
# Order of results: gsp antagonist | ClpP mod | Sfp PPTase inh | TRPV1 PAM | Menin-MLL FL inh | gsp ag | CtBP-E1A blk
- CC(=O)c1ccc(S(=O)(=O)Nc2ccccc2C(=O)NC2CC2)cc1
  -11% | 0.5% | x | -2 | x | 6% | 6
- Cc1nn(CC(O)c2ccccc2)c(C)c1Br (configuration not stated)
  -17% | 0.2% | 9% | 8 | 2.1 | -8% | 9
- CCOc1ccccc1N(CC(=O)N1CCCCCC1)S(C)(=O)=O
  2% | 0.1% | 14% | 8 | 1.1 | 17% | 1
- COc1cccc(NC(=O)C(c2ccccc2)N2CCN(CC(=O)N3CCOCC3)CC2)c1 (configuration not stated)
  -5% | 5.3% | x | u | x | -9% | -7
- O=C(NCCNC(=O)c1cc(OCC(F)(F)F)ccc1OCC(F)(F)F)Nc1ccccc1
  -2% | -7.5% | -8% | -19 | 0.5 | -35% | -5
- COCCCN1C(=O)c2[nH]nc(-c3ccccc3O)c2C1c1cccc(Cl)c1 (configuration not stated)
  -3% | -0.9% | -15% | -7 | 1.4 | -25% | -12

# All compounds of this part (from the top)
# Order of results: gsp antagonist | ClpP mod | Sfp PPTase inh | TRPV1 PAM | Menin-MLL FL inh | gsp ag | CtBP-E1A blk
- CC(=O)c1ccc(S(=O)(=O)Nc2ccccc2C(=O)NC2CC2)cc1
  -11% | 0.5% | x | -2 | x | 6% | 6
- Cc1nn(CC(O)c2ccccc2)c(C)c1Br (configuration not stated)
  -17% | 0.2% | 9% | 8 | 2.1 | -8% | 9
- CCOc1ccccc1N(CC(=O)N1CCCCCC1)S(C)(=O)=O
  2% | 0.1% | 14% | 8 | 1.1 | 17% | 1
- COc1cccc(NC(=O)C(c2ccccc2)N2CCN(CC(=O)N3CCOCC3)CC2)c1 (configuration not stated)
  -5% | 5.3% | x | u | x | -9% | -7
- O=C(NCCNC(=O)c1cc(OCC(F)(F)F)ccc1OCC(F)(F)F)Nc1ccccc1
  -2% | -7.5% | -8% | -19 | 0.5 | -35% | -5
- COCCCN1C(=O)c2[nH]nc(-c3ccccc3O)c2C1c1cccc(Cl)c1 (configuration not stated)
  -3% | -0.9% | -15% | -7 | 1.4 | -25% | -12
- COc1ccc(C(=O)N2CCN(c3ccc(NC(=O)Cc4ccccc4)cc3)CC2)cc1
  -25% | 0.2% | -4% | 5 | x | -15%[15.4 µM] | 2
- Cc1ccc(CNc2ccccc2C(=O)O)s1
  1% | 3.7% | -3% | 2 | -0.6 | -6% | x
- C[C@H](CO)NC(=O)c1nc[nH]c1C(=O)N[C@H](C)c1ccccc1
  x | 1.3% | x | x | x | u | -7
- CN(CCCNC(=O)CCCOc1cc(=O)n(C)c2ccccc12)Cc1ccccc1
  -3% | -2.0% | 12% | 7 | -5.6 | -27% | x
- O=C(O)c1ccc2c(c1)C1C=CCC1C(c1cc3c(cc1Br)OCO3)N2 (configuration not stated)
  0% | -3.3% | -5% | 6 | 0.6 | 7% | 10
- CC(C)Cc1nc(Nc2ccc(S(=O)(=O)N3CCCC3)cc2)c2nnn(Cc3ccccc3)c2n1
  -6% | -1.4% | 14% | -25 | 4.5 | -8%[15.4 µM] | -7
- COC(=O)[C@@H]1CCCN1C(=O)CCc1nnc(CCc2c[nH]c3ccccc23)o1
  -4% | x | -13% | -14 | 1.1 | -10%[15.4 µM] | -2
- Cc1ccc(S(=O)(=O)N2CCC(C(=O)N[C@@H](C)C(=O)NCCc3ccccc3)CC2)cc1
  0% | -0.6% | 17% | -2 | 3.4 | 1% | 3
- Cc1ccc(CNC(=O)c2cc(COc3c(F)cccc3F)on2)s1
  6% | x | -1% | -17 | 1.7 | 4% | 18

# 2 records drawn at random from the list so far, as already listed:
# Order of results: gsp antagonist | ClpP mod | Sfp PPTase inh | TRPV1 PAM | Menin-MLL FL inh | gsp ag | CtBP-E1A blk
- CC(C)Cc1nc(Nc2ccc(S(=O)(=O)N3CCCC3)cc2)c2nnn(Cc3ccccc3)c2n1
  -6% | -1.4% | 14% | -25 | 4.5 | -8%[15.4 µM] | -7
- COc1ccc(C(=O)N2CCN(c3ccc(NC(=O)Cc4ccccc4)cc3)CC2)cc1
  -25% | 0.2% | -4% | 5 | x | -15%[15.4 µM] | 2

# (continued)
# Order of results: gsp antagonist | ClpP mod | Sfp PPTase inh | TRPV1 PAM | Menin-MLL FL inh | gsp ag | CtBP-E1A blk
- Cc1cc(C)cc(OCC(=O)Nc2ccc(N3CCN(S(C)(=O)=O)CC3)cc2)c1
  8% | -1.0% | 10% | -1 | -0.3 | 7% | -7
- COc1ccc(C2CC(=O)c3ccccc3O2)cc1 (configuration not stated)
  -1% | -3.7% | 7% | 14 | 0.8 | 6% | 1
- O=c1[nH]ncc2c3ccccc3n(Cc3ccccc3F)c12
  4% | -4.9% | 21% | x | 1.3 | u | 3
- c1ccc(-c2nc(-c3ccco3)cs2)nc1
  -2% | -28% | 45µM* | -9 | 13 | -22% | -14
- CCOc1ccc(NS(=O)(=O)c2ccc(OC)c(C)c2)cc1
  -22% | -3.1% | 11% | -7 | 0.7 | -2% | -1
- O=C(CSc1nnc(NC(=O)C2CC(=O)N(c3ccc(F)cc3)C2)s1)NCc1ccco1 (configuration not stated)
  -3% | -1.9% | -22% | 3 | 1.2 | -43%[15.4 µM] | -13
- CN(C)S(=O)(=O)c1cccc(COC(=O)c2cc([N+](=O)[O-])ccc2N2CCOCC2)c1
  -18% | x | x | -13 | x | 13%[15.4 µM] | -6
- CCOC(=O)C1CCCN(S(=O)(=O)CCNC(=O)c2ccc(F)cc2)C1 (configuration not stated)
  6% | x | x | -12 | x | 0%[15.4 µM] | 7
- CCN(C(=O)CSc1nnc(Cc2ccccc2F)n1N)C1CCS(=O)(=O)C1 (configuration not stated)
  2% | 0.3% | -3% | 1 | 1.7 | -73%[inhibitor] | 1
- CN(CC(=O)Nc1ccccc1Cl)C(=O)COC(=O)c1ccc(S(=O)(=O)C(F)F)cc1
  -8% | x | x | -9 | x | -2%[15.4 µM] | 1
- CCCSc1nc2sc3c(c2c(=O)[nH]1)CC(C)CC3 (configuration not stated)
  11% | x | -4% | 2 | -3.6 | 21% | 2
- COc1cc(C2C(C(=O)c3cccs3)=C(O)C(=O)N2CCN2CCOCC2)ccc1OCCC(C)C (configuration not stated)
  9% | x | x | x | x | 6% | 1
- CCNc1nc(NC(C)C)nc(Oc2ccc(OCCOc3ccc(C)cc3)nn2)n1
  -4% | 0.9% | -16% | -1 | 2.2 | -25% | 16
- O=C1Nc2ccc(S(=O)(=O)NCCC3=CCCCC3)c3cccc1c23
  1% | -22% | 3% | -32 | 3.2 | u | 5
- CCCCC#Cc1ccc2c(c1)COc1c3ccccc3nn1-2
  -9% | -4.8% | -13% | -16 | 0.3 | x | 7
- O=C(Nc1cccnc1)c1ccc([N+](=O)[O-])cc1Cl
  1% | 0.0% | 18% | -14 | 0.0 | 6% | 6
- COc1ccc(Cl)cc1NS(=O)(=O)c1c(C)[nH]c(=O)[nH]c1=O
  4% | -1.6%&2.7% | 24% | -7 | 8.3 | -11% | 1
- NC(=O)c1cc2cc(Br)ccc2oc1=NCc1ccccc1
  3% | 9.0% | -4% | 5 | 4.1 | u | -6
- O=C(Nc1ccc(F)cc1)c1cccc2ccccc12
  -17% | 1.5% | 8% | 2 | -1.6 | -22% | x
- CNC(=S)N1N=C(c2cccs2)CC1c1ccc(OC)cc1 (configuration not stated)
  -4% | 5.3% | 1% | 16 | 3.4 | -14%[15.4 µM] | 8
- O=[N+]([O-])c1ccccc1/C=C/CN1CCCCC1
  7% | 1.4% | 3% | 5 | 0.5 | -3% | 6
- CCNC(=S)N(Cc1cccs1)Cc1cc2cc(OCC)ccc2[nH]c1=O
  -15% | u | -12% | 5 | -0.1 | 9% | 7
- CN1CCN(S(=O)(=O)c2ccc(N3CCN(C(c4ccccc4)c4ccccc4)CC3)nc2)CC1
  -15% | x | -5% | -10 | 6.5 | 15%[15.4 µM] | x
- COc1ccccc1N1CCN(CC(=O)c2c[nH]c3ccccc23)CC1
  -9% | -1.6% | -7% | 0 | 8.8 | 7% | 1
- CC1=C(C#N)C(/C=N/OCc2ccc(Cl)cc2)CC(=O)N1 (configuration not stated)
  -2% | x | -19% | 4 | 6.2 | -3%[15.4 µM] | x
- COc1ccc(C(C(=O)NCC2CCCO2)N(C(=O)c2snc(C(N)=O)c2N)c2ccccc2C)cc1OC (configuration not stated)
  -5% | -6.6% | 13% | 16 | -4.3 | -1%[15.4 µM] | 4
- COc1ccc(/C=C2/C(=N)N3C(=NC2=O)Sc2cc(S(C)(=O)=O)ccc23)cc1OC
  -29% | -0.8% | 8% | -11 | 11 | -3%[15.4 µM] | 4
- CCOc1ccc(CN2CCNC(=O)C2CC(=O)O)cc1 (configuration not stated)
  10% | x | 12% | 8 | -1.9 | 7%[15.4 µM] | 8
- CN1C(=O)CC(N2CCC(C(N)=O)CC2)C1=O (configuration not stated)
  4% | -0.8% | 12% | -4 | 2.6 | 20% | -1
- CCNC(=S)N(Cc1cc2cc(C)cc(C)c2[nH]c1=O)C1CCCC1
  -12% | -17% | 1% | 1 | -1.4 | 1% | 3
- CCOc1cc(-c2sc(Nc3ccccc3)n[n+]2C)ccc1OC
  5% | -0.7% | -1% | u | -0.5 | x | 2
- O=S(=O)(c1ccc(F)c(F)c1)N1CCN(CCc2ccccc2)CC1
  5% | -1.0% | -3% | -17 | -0.1 | u | -7
- Cc1c(NC(=O)N(C)C)c(=O)n(-c2ccccc2)n1C
  7% | -2.0% | 11% | -12 | -0.7 | -9% | -3

# Screening data deposited in PubChem BioAssay by National Center for Advancing Translational Sciences (NCATS).
